Source: PubChem BioAssay
HCMV NEC inh – cytomegalovirus nuclear egress complex inhibition; HTRF UL50-UL53 interaction, normalized percent inhibition; inhibition, % (concentration not given with the values); hit rate 0.15% among 190,000; AID 1918969;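 active = both replicates at 50% or more, plus weaker picks with an unusually low signal ratio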;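 also: stock transfer was 100 nL into about 20 µL; 0% = negative control wells and 100% = wells with untagged competitor protein; inactives centre near -12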
Starred values were filed as active, the others as inactive; & = joins results of further samples. Some of the compounds tested; rates above refer to the full screens.

SMILES	HCMV NEC inh
Cc1cc(=O)c(C(=O)N[C@@H](C(=O)N[C@@H]2C(=O)N3C(C(=O)O)=C(CSc4nnnn4C)CSC23)c2ccc(O)cc2)c[nH]1 (some centres undefined)	-71.0
O=C(CCn1c(=O)oc2ccccc21)N1CCN(c2ccc(F)cc2)CC1	-15.3
CCOc1ccc2nc(SCC)[nH]c2c1	-2.3
O=C(CCCCCc1ccccc1)c1nc2ncccc2o1	-20.1&-20.1
CCCCC[C@H](O)/C=C/[C@@H]1[C@@H](C/C=C\CCCCO)[C@@H](O)C[C@H]1O	-8.8&-8.8
CCn1c(=NC(=O)c2ccc(N(C)C)cc2)sc2cc(Cl)ccc21	-6.9
OC[C@@H](Cc1ccccc1)NC1CCCCCC1	-20.5
O=C(Nc1ccc(-c2nc3ccccc3[nH]2)cc1)c1c(F)cccc1F	-2.2
COc1ccc(/C=C/C(=O)O)cc1S(=O)(=O)N1CCCCC1	-33.1
CCC1CN(C(=O)c2cc(-c3cnn(C)c3)nc3c(C)cccc23)CCN1C (centres undefined)	-18.7
COc1ccc(C(=O)Nc2nc(-c3ccc(C)cc3)cs2)c(OC)c1	-12.0
CC(=O)OC1C(=O)[C@]2(C)C(O)CC3OC[C@@]3(OC(C)=O)C2C(OC(=O)c2ccccc2)[C@]2(O)CC(OC(=O)C(O)C(NC(=O)c3ccccc3)c3ccccc3)C(C)=C1C2(C)C (some centres undefined)	-7.1
CC(C)Nc1ncccn1	-30.3
N#Cc1ccc(C(=O)N2CCNC(=O)C2Cc2ccccc2)cc1 (centres undefined)	-15.4
O=C(O)CCC/C=C\C[C@@H]1[C@@H](/C=C/[C@@H](O)COc2ccccc2)[C@H](O)C[C@@H]1O	-26.7&-26.7
c1nc(-c2ccc3c(c2)OCCO3)c2sccc2n1	-2.7
CCCn1c(CO)nc2ccccc21	-19.4
Cc1cnc(CN(C)Cc2ccc(-c3nc(C(F)(F)F)c(C)c(=O)[nH]3)cc2)[nH]1	-21.5
CN(C)c1ccc(P(=O)(OC2CCCCC2)C(O)c2ccccc2)cc1 (centres undefined)	-21.9
Cc1nc(C)c(I)c(Oc2ccc(C#N)cc2)n1	2.1
Cc1ccnc2ccc(SC(F)(F)F)cc12	8.7&-8.1
Oc1ccccc1Oc1ccccc1	-4.1
CC(C)n1c(-c2cccs2)nc2ccccc21	4.9
O=C(O)C(O)C(O)c1ccccc1 (centres undefined)	-8.9
CO[C@H]1/C=C/O[C@@]2(C)Oc3c(C)c(O)c4c(O)c(c5c(c4c3C2=O)NC2(CCN(CC(C)C)CC2)N=5)=NC(=O)/C(C)=C\C=C\[C@H](C)[C@H](O)[C@@H](C)[C@@H](O)[C@@H](C)[C@H](OC(C)=O)[C@@H]1C	-179.4

A different layout for part of the listing above:
> O=C(CCn1c(=O)oc2ccccc21)N1CCN(c2ccc(F)cc2)CC1
  HCMV NEC inh = -15.3

> CCOc1ccc2nc(SCC)[nH]c2c1
  HCMV NEC inh = -2.3

> O=C(CCCCCc1ccccc1)c1nc2ncccc2o1
  HCMV NEC inh = -20.1&-20.1

> CCCCC[C@H](O)/C=C/[C@@H]1[C@@H](C/C=C\CCCCO)[C@@H](O)C[C@H]1O
  HCMV NEC inh = -8.8&-8.8

Next part:
SMILES	HCMV NEC inh
O=C(COc1ccccc1)Nc1nc2c(s1)CCCC2	8.7
CC(C)N(C(=O)Cn1c(=O)oc2ccccc21)c1ccccc1	16.2&5.7
COc1ccc(N2C(=O)C(F)(F)C2c2ccccc2)cc1 (centres undefined)	-7.6
NC(=O)CSc1ncnc2ccccc12	-32.7
c1csc(-c2cn3c(n2)CCC3)c1	-21.1
Cc1ccc(C(=O)N2CCNC(=O)C2Cc2ccccc2)c(F)c1 (centres undefined)	-15.2
O=C(CSc1nnc2ccccn12)Nc1ccccc1	-2.9
CCCc1cc2c(=O)c(-c3ccc(C(=O)OCC)o3)coc2cc1O	-24.1
CN(C)c1ccc(C(O)c2cccs2)cc1 (centres undefined)	-7.5
Cc1cc(C)cc(Nc2ccc(C(=O)O)cc2N)c1	-8.9
Cc1ccc(-c2ccc(S(=O)(=O)N3CC(C)OC(C)C3)cc2)cc1 (centres undefined)	1.3
C=CC(=O)Nc1cccc(Oc2ccnc(Nc3ccc(N4CCN(C)CC4)cc3)n2)c1	-6.2
CC(=O)Nc1ccc(N2C(=O)CSC2c2c(F)cccc2Cl)cc1 (centres undefined)	-0.5
COc1ccc(CC(=O)NC(/N=C(\NC#N)Nc2cccc3ncccc23)C(C)(C)C)cc1OC (centres undefined)	-6.3
CCN(CC)CC(O)Cn1c2c(c3cc(C)ccc31)CCCC2 (centres undefined)	0.1
CC(O)C(=O)O (centres undefined)	7.7
CN(C)CCN1C(=O)C(O)=C(C(=O)c2cc3ccccc3o2)C1c1ccccc1 (centres undefined)	-40.3
COc1cc(NC(=O)c2cnc(N)s2)cc(C(=O)Nc2cccc(C(F)(F)F)c2)c1	-9.5
CCOC(=O)c1c(C)[nH]c2ccc3c(c12)CN1CCc2cc(OC)ccc2C1O3 (centres undefined)	-8.2
CCOC(=O)CSc1ncc(-c2ccc(Cl)cc2)[nH]1	-9.1
Cc1c(O)ccc2c(=O)c(-c3ccc(F)cc3)c(C(F)(F)F)oc12	-14.0
Cc1cc(C)c(S(=O)(=O)Nc2cc(SCC(=O)O)c(O)c3ccccc23)cc1C	-39.1
Brc1cccc(-c2nnc(Nc3ccccc3)o2)c1	-15.3
Cc1ccc(C(=O)Nc2nnc(-c3ccccc3)s2)cc1	0.9
O=C(O)CC(c1cccc(O)c1)N1Cc2ccccc2C1=O (centres undefined)	-6.3

Three compounds picked at random from those above, as already listed:
SMILES	HCMV NEC inh
Cc1c(O)ccc2c(=O)c(-c3ccc(F)cc3)c(C(F)(F)F)oc12	-14.0
C=CC(=O)Nc1cccc(Oc2ccnc(Nc3ccc(N4CCN(C)CC4)cc3)n2)c1	-6.2
Cc1ccc(-c2ccc(S(=O)(=O)N3CC(C)OC(C)C3)cc2)cc1 (centres undefined)	1.3

Entries shown so far containing a furan ring, fused or not, in the order listed:
SMILES	HCMV NEC inh
CCCc1cc2c(=O)c(-c3ccc(C(=O)OCC)o3)coc2cc1O	-24.1
CN(C)CCN1C(=O)C(O)=C(C(=O)c2cc3ccccc3o2)C1c1ccccc1 (centres undefined)	-40.3

Next part.
SMILES	HCMV NEC inh
CS(=O)(=O)N1CCN=C1SCc1cccc(F)c1	3.3&-4.5
CCCC(C(=O)O)N1C(=O)/C(=C/c2ccc(O)c(OCC)c2)SC1=S (centres undefined)	-7.5
CCc1ccccc1NC(=O)CC1SC(N)=NC1=O (centres undefined)	-14.7
Cc1ccc(N(Cc2ccco2)C(=O)CNS(=O)(=O)c2ccc(Cl)cc2)cc1	-11.8
CC(CCC(=O)O)C1CC[C@H]2[C@@H]3CC[C@@H]4CC(O)CC[C@]4(C)[C@H]3CC[C@]12C (some centres undefined)	-21.0
C(=C\c1cccs1)/c1ccccc1	-6.5
Cc1ccc(S(=O)(=O)N(C)c2ccccc2)s1	-5.5
CCOP(=O)(c1ccccc1)c1nc(-c2ccc(Cl)cc2)oc1NCc1ccccc1 (centres undefined)	-15.9
O=C(Nc1nc2cccc(-c3ccc(CN4CCS(=O)(=O)CC4)cc3)n2n1)C1CC1	-39.9
CCC(=O)Nc1cc(C)c2c(=O)oc3ccccc3c2n1	-13.1
CC1CCN(C(=O)/C(=C\c2ccccc2)NC(=O)c2ccccc2)CC1	6.9
CC(C=CC=C(C)C=CC1=C(C)CCCC1(C)C)=CC=CC=C(C)C=CC=C(C)C=CC1=C(C)CCCC1(C)C	25.4
CC(C)NS(=O)(=O)c1ccc(NC(=O)c2ccncc2)cc1	-1.0
CCN1CCc2c(OCc3ccc(Cl)cc3)cccc2C1=O	-3.6
CCn1c2ccccc2c2cc(Nc3ccnc(NCCCN4CCOCC4)n3)ccc21	-5.2
Cc1ccc(S(=O)(=O)C(F)(F)F)cc1NC(=O)c1cccnc1	-16.7
c1ccn(-c2ccc3nccnc3c2)c1	-88.4
O=C(CSC1=NCCS1)Nc1nnc(-c2ccc(Br)cc2)s1	-10.0
CCCCCCCCCCCCC/C=C/[C@@H](O)[C@H](CO)NC(=O)CCCCC	-11.1&-11.1
CCN(CC)CCc1nc(-c2ccccc2)no1	-25.3&-11.4
COc1ccc(-c2ccc3cc(Cl)ccc3n2)c(OC)c1	-24.5
C(=C\c1ccccc1)/CSc1nnc(-c2ccncc2)o1	4.1
CC(C)(O)c1ccccc1CC[C@@H](SC1(CC(=O)O)CC1)c1cccc(/C=C/c2ccc3ccc(Cl)cc3n2)c1	-61.8
CS(=O)(=O)c1ccc(C(=O)Nc2ccc(N3CCCCC3)cc2)c(Cl)c1	-10.9
CCOc1ccccc1C(=O)NCCSc1c[nH]c2ccccc12	-0.9
(continued)
SMILES	HCMV NEC inh
CN1CCc2c(OCc3ccccc3Cl)cccc2C1=O	-1.9
CCC(=O)Oc1ccc2cc(-c3nc4ccccc4n3C)c(=O)oc2c1	-19.1
Cc1[nH]cnc1CNc1cc(C(=O)Nc2cccc(N(C)C)c2)cc(S(=O)(=O)N2CCCC2)c1	12.6
COC(=O)CCC(=O)N1CCc2[nH]nc(-c3ccc4c(c3)OCO4)c2C1	-8.5
COC(=O)c1c(NC(=O)C2CCC2)c2cc(NC3CCSCC3)cnc2n1CCc1ccccn1	-2.6
O=C(c1ccc(S(=O)(=O)N2CCCCC2)cc1)N1CCc2ccccc2C1	-11.6
N#CCSc1nc(N)c(C#N)c(-c2cccs2)c1C#N	-3.6
CN(C(=O)/C=C/c1ccccc1)C1CCS(=O)(=O)C1 (centres undefined)	-5.5
O=C(N/C(=C/c1ccc(Cl)cc1)C(=O)N1CCOCC1)c1ccccc1	-9.7
Cc1cc(C)nc(-c2cnn(CC(=O)Nc3cnn(C)n3)c2)n1	-13.3&-13.3
CSCC[C@H](NC(=O)[C@H](Cc1ccccc1)NC[C@@H](NC[C@@H](N)CS)C(C)C)C(=O)O	-13.6
COC(=O)c1c(N2C(=O)C3CC(C)=C(C)CC3C2=O)sc(C)c1C (centres undefined)	2.7
CC(C)(C)C(=O)OCOC(=O)[C@@H]1N2C(=O)[C@@H](N=CN3CCCCCC3)[C@H]2SC1(C)C	-25.9
COc1cccc(NC(=O)c2ccc3c(c2)CCCC3)c1	5.5
CCCn1nc(NC(=O)Cn2ccc(-c3ccc(F)cc3)n2)c2ccccc21	6.9
CCOc1ccc(OCC)c(S(=O)(=O)N2CCN(c3ccccc3)CC2)c1	17.8
O=C(Nc1ccc(-c2csc(Nc3ccccc3)n2)cc1)c1ccccc1	4.6
CC1(C)CC(OC(=O)c2ccccc2C(=O)OC2CC(C)(C)NC(C)(C)C2)CC(C)(C)N1	-23.9
Clc1ccccc1-c1ncc2ccccn12	-60.3
CCN(CC)CCCNc1nc2ccccc2[nH]1	-1.5
NS(=O)(=O)c1ccc2c3c(cccc13)C(=O)N2	-69.6
N#Cc1c(-c2cccs2)c2c([nH]c1=S)CCCC2	-70.4
COC(=O)/C=C/c1cccc(N(Cc2ccc(-c3ccc(N(C)C)cc3)cc2)C(=O)C2CCCCC2)c1	0.6
CC(C)c1nc(N(C)S(C)(=O)=O)nc(-c2ccc(F)cc2)c1C=CC(O)CC(O)CC(=O)O (centres undefined)	-20.9
COc1cccc(OC(=O)c2cc3ccccc3oc2=O)c1	1.9
Going on with the list.
SMILES	HCMV NEC inh
Cc1ccc(CN2C(=O)C3CCCN3c3ccc(C#N)cc32)cc1 (centres undefined)	-8.7
CCOC(=O)c1sc(NC(=O)c2cc(=O)c3ccccc3o2)cc1C	10.4
COc1cc(O)cc(C(=O)c2ccccc2)c1S(=O)(=O)O	-69.8
COc1ccc2c(=O)c(-c3cscn3)c(C(F)(F)F)oc2c1	-11.7
CC1C[C@H]2[C@@H]3CC(F)C4=CC(=O)C=C[C@]4(C)[C@]3(F)C(O)C[C@]2(C)[C@@]1(O)C(=O)CO (some centres undefined)	-4.8
CC(=O)Nc1ccc2c(c1)sc(=NC(=O)c1ccc3ncsc3c1)n2C	1.3&-2.9
COc1ccc(CCNC(=O)c2csc3c2CCCC3)cc1OC	-6.2
COc1ccc(/C(O)=C(/C#N)c2nc3ccccc3s2)cc1	-10.1
FC(F)(F)c1cccc(-c2ccc3ccccc3n2)c1	-3.3
CC1(C)CC(=O)c2sc(NC(=O)CCSc3ccccc3)nc2C1	0.2
CCOC(=O)CSc1nnc(NC(=O)C2CCCCC2)s1	-10.9
Clc1ccc(COc2cccc3cccnc23)cn1	-50.1
COc1ccc(N2CCN(C(=O)c3ccc(OC)nc3OC)CC2)cc1	-7.8
COC(=O)c1cc(Cl)c(C(=O)OC)cc1Cl	-17.6
O=c1c(Oc2ccccc2)coc2cc(O)ccc12	-16.0
CN1CCN(Cc2cc(Cl)c3cccnc3c2O)CC1	-26.8
COc1ccc(-n2nnnc2-c2nc3ccccc3s2)cc1	-1.5
Nc1ccccc1SCc1cn2ccccc2n1	-20.8
Cc1nc(-c2ccc(N=Cc3cc(Br)ccc3O)cc2)cs1	-18.4
Cc1cc2cc(CNC(=O)C3CCCC3)ccc2n1C	-11.2
CC(C)(C)c1ccc(NC(=O)CSc2nnnn2-c2ccccc2)cc1	8.3
CCOC(=O)c1c(C)oc2ccc(OC(=O)c3ccco3)cc12	-10.2
Cc1ccc(C(=O)Nc2cccc(C(F)(F)F)c2)cc1Nc1ncnc2nc[nH]c12	-6.8
CCSc1nnc(-c2c[nH]c3ccccc23)n1CC	-9.9
O=C(CCSc1ccccc1)Nc1nc(-c2cccnc2)cs1	2.3
Remaining list, next part.
SMILES	HCMV NEC inh
O=S(=O)(NCCn1ccc2ccccc21)c1ccccc1	-1.2
O=C(Oc1ccc(C=Nc2ccccc2Cl)cc1)c1cccnc1	-25.4
CCc1nnc(NC(=O)Cc2ccccc2)s1	-17.6
Cc1cc(C)c(CNC(C)CCCC(C)(C)O)c(C)c1CO (centres undefined)	-21.5
Oc1cc(CN2CCCCCC2)c(O)cc1CN1CCCCCC1	-5.4
CSc1ncnc2c1c(-c1ccccc1)cn2-c1ccc(F)cc1	4.5
C=CCN1CCCC1CNC(=O)c1cc2[nH]nnc2cc1OC (centres undefined)	4.6&-13.1
CCCCC/C=C\C[C@H](O)/C=C/C=C\C/C=C\CCCC(=O)O	9.1
Oc1ccc2ccccc2c1/C=N/c1ncccn1	99.3*
Cc1n[nH]c(=O)[nH]c1=O	-26.6
COc1ccc(C(=O)Oc2ccc3oc(=O)sc3c2)cc1OC	4.0
